AmpC nodet inh: Promiscuous and Specific Inhibitors of AmpC Beta-Lactamase (assay without detergent); AmpC nitrocefin hydrolysis, absorbance 480 nm, no detergent; potencies from a single point are estimates; Potency, µM (top dose mostly 28.7 µM), for inactives: at the highest dose activity change, negative = inhibition; actives 1.8% (n = 71,000); AID 585, 2007; P00811; active = falling curve, for most hits resting on a single point; inconclusive = weak or doubtful change; inactive = flat or rising curve; also: % of control where 0% means no effect; about half of the hits show no inhibition at the top dose; a quarter of the inactives give rising signals
Target sequence (P00811 whole entry, looked up): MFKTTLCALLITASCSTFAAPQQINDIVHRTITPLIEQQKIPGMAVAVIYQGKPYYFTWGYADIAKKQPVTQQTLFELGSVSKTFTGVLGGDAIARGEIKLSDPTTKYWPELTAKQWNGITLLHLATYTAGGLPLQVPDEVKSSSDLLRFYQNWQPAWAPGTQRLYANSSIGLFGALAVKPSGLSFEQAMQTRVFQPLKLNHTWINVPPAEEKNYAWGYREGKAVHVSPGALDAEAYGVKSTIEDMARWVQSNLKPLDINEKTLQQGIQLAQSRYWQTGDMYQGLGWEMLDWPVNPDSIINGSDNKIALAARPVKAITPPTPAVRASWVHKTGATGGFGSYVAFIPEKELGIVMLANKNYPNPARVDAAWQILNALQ
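AmpC in 20 mM phosphate buffer pH 7.0 was preincubated 15 min at room temperature with compounds. Nitrocefin (800 uM stock) was then added and hydrolysis followed at 480 nm every 20 s for 4 min.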
The depositor's hits bear a star; ? = inconclusive; [ ] = dose if it differs, or a comment. Potency is read from the fitted curve at half-maximal effect. Some of the compounds tested; count on the stated rates, not on these rows.

SMILES	AmpC nodet inh
COc1cc2[nH]c(=O)n(CCC(=O)N3CCc4ccccc4C3)c(=O)c2cc1OC	28%
O=C1c2oc3ccccc3c(=O)c2C(c2cccnc2)N1CCCN1CCOCC1 (stereo not drawn)	12%
CCCn1c(=O)c2ccccc2n2c(Sc3nnnn3-c3ccccc3)nnc12	12%
c1ccc(-n2ncc3c(NCCN4CCCCC4)ncnc32)cc1	4%
CC(=O)NC1=NC(=O)CS1	0%
CCOCCCNc1nc2c(c(=O)[nH]c(=O)n2C)n1CCCc1ccccc1	2%
CC(c1nnc(SCC(=O)NC(=O)NCc2ccco2)n1-c1ccc(Cl)cc1)N(C)C (stereo not drawn)	78%
O=C(Oc1ccccc1)N1CCC2(CCN(Cc3ccccc3)CC2)CC1	17%
CCCC[N+](=O)[O-]	-1%
CN(C)c1ncc2nc(-c3ccccc3)c(=O)n(-c3ccccc3)c2n1	2%
CCOP(=S)(OCC)SCSC(C)(C)C	-10%
CC(=O)Nc1ccc(C)cc1NC(C)=O	-3%
COC(=O)c1ccccc1NC(=O)c1ccco1	2%
O=C(Nc1ccon1)c1ccc2c(c1)OCO2	-9%
C=CCn1c(Cc2cccs2)nnc1SCC(=O)Nc1cccc(OC)c1	13%
COc1cc(C(c2sc3nc(C)nn3c2O)N2CCOCC2)cc(OC)c1OC (stereo not drawn)	-2%
C[C@@H]1O[C@H](O[C@H]2C[C@@H](O)[C@@]3(CO)[C@H]4[C@@H](O)C[C@]5(C)[C@@H](C6=CC(=O)OC6)CC[C@]5(O)[C@H]4CC[C@]3(O)C2)[C@@H](O)[C@H](O)[C@@H]1O	-1%[12.8 µM]
CCOc1ccc(-c2nc3n(c(=O)c2C#N)CCCS3)cc1	11%
CCc1ccc(C(=O)Nc2nnn(CC)n2)cc1	-21%
CCOC(=O)N1CCC(NC(=O)C(C)n2c3ccccc3c3cnn(C)c(=O)c32)CC1 (stereo not drawn)	110%
COc1cc(NS(=O)(=O)c2ccc(C)cc2)ccc1-n1cnnn1	-12%
Cc1nn(Cc2nc(-c3cccs3)no2)c(C)c1Br	2.5µM*[single pt active]
Cc1cccc(NC(=O)CSc2n[nH]c(-c3ccncc3)n2)c1	-19%
Cc1ccccc1O	1%
CC(C)C(C(=O)OCC(=O)c1ccc2c(c1)NC(=O)CO2)N1C(=O)c2ccccc2C1=O (stereo not drawn)	33%

The list goes on (six carried over from the part before).
SMILES	AmpC nodet inh
CCOC(=O)N1CCC(NC(=O)C(C)n2c3ccccc3c3cnn(C)c(=O)c32)CC1 (stereo not drawn)	110%
COc1cc(NS(=O)(=O)c2ccc(C)cc2)ccc1-n1cnnn1	-12%
Cc1nn(Cc2nc(-c3cccs3)no2)c(C)c1Br	2.5µM*[single pt active]
Cc1cccc(NC(=O)CSc2n[nH]c(-c3ccncc3)n2)c1	-19%
Cc1ccccc1O	1%
CC(C)C(C(=O)OCC(=O)c1ccc2c(c1)NC(=O)CO2)N1C(=O)c2ccccc2C1=O (stereo not drawn)	33%
C=CCOc1ccc2ccccc2c1CNc1ncn[nH]1	-6%
CN(C)CCCOC(=O)CCc1ccccc1	-4%
COc1ccc(CN2CCN(C(=O)CN3C(=O)C4C5C=CC(C5)C4C3=O)CC2)c(OC)c1OC (stereo not drawn)	59%
O=c1c(N2CCCCC2)coc2ccccc12	-4%
CCOc1ccccc1C1CC(=O)Nc2cc3c(cc21)OCCO3 (stereo not drawn)	-14%
COC(=O)c1ccc(C2C(C(=O)OC(C)C)=C(C)N=C3SCCC(=O)N32)cc1 (stereo not drawn)	107%
CC(C)CNC(=O)COC(=O)c1cc(S(=O)(=O)N2CCCCC2)ccc1N1CCOCC1	108%
CC(=O)c1cccc(NC(=O)CC2Oc3ccc(C)cc3NC2=O)c1 (stereo not drawn)	4µM*[single pt active]
COC(=O)c1[nH]c2ccc(C)cc2c1NC(=O)CN1CCc2cc(OC)c(OC)cc2C1	149%
Fc1ccc(-c2nnc(CN3CCN(c4ncc(C(F)(F)F)cc4Cl)CC3)o2)cc1	98%
Cc1c(C(=O)N2CCOCC2)[nH]c2c1C(=O)CC(c1ccccc1Cl)C2 (stereo not drawn)	18%
COc1ccc(C(=O)Nc2ccc(Cl)cn2)cc1Cl	-5%
CCOC(=O)C1=C(O)CSC1=Nc1cccc(Cl)c1	-3%
Cc1[nH]n(-c2ccccc2)c(=O)c1-c1ccccc1	-13%
O=C(c1ccccc1)N1CCN(Cc2ccccc2Br)CC1	38%
CC(NC(=O)Nc1nnc(C(F)(F)F)s1)N1C(=O)C2C3C=CC(C3)C2C1=O (stereo not drawn)	-2%
COc1ccc(-c2noc(CN3CCN(c4ccccc4)CC3)n2)cc1	22%
COc1ccc(NS(=O)(=O)c2cccc3cccnc23)cc1	-10%
COc1cc2c(cc1OC)CN(C(=O)c1ccc(OC)c(S(=O)(=O)N3CCOCC3)c1)CC2	86%
COc1ccc(Br)cc1C(=O)Nc1cccc(-c2nnc(-c3ccco3)o2)c1	93%
Cc1sc2nc(C(C)Sc3nnc(C)n3-c3ccccc3)[nH]c(=O)c2c1C (stereo not drawn)	-5%
C#CCSc1nnc(-c2cccc3ccccc23)o1	6%
CC12CC(NC(=O)N1c1ccc(C(=O)N3CCN(c4ccc(F)cc4)CC3)cc1)c1ccccc1O2 (stereo not drawn)	135%
c1ccc(CCc2nc(-c3ccncc3)no2)cc1	2%
Cc1cccc2cc(C#N)c(SCC(=O)N3CC(=O)Nc4ccccc43)nc12	16µM*[single pt active]
(cont.)
SMILES	AmpC nodet inh
COc1ccc(-c2nnc(N)s2)cc1	-9%
COC(=O)[C@@]1(Cc2ccc(F)cc2)[C@@H]2[C@@H](CC(=O)[C@H]2CC(=O)C(=O)N2CCCC2)CN1C(=O)c1ccccc1	151%
Cc1nc2nc3c(cn2n1)C(=O)CC(C)(C)C3	-3%
Cc1ccc2c(c1)CCCN2C(=O)c1ccc2c(c1)OCO2	18%
CCc1nnc(NC(=O)CCc2nc(C3=CCN(C)CC3)no2)s1	2%
C=C(C)Cn1c(CCNC(=O)CCC)nc2ccccc21	-2%
Cn1nnnc1SCC(=O)N1CCN(c2cccc(Cl)c2)CC1	17%
COc1ccc(-c2cc(C(=O)Nc3c(C)nn(Cc4ccccc4Cl)c3C)no2)cc1OC	112%
CCN1CCC[C@@H]1CNC(=O)c1c(OC)ccc(I)c1O	7%
O=C(c1ccc(Cl)cc1)N1CCN(C(=O)c2ccco2)CC1	6%
Cc1onc(-c2ccccc2Cl)c1C(=O)Nc1ccccc1C(N)=O	5%
Cc1cccc(Cn2c(SCCO)nc3c2c(=O)n(C)c(=O)n3C)c1	46%
Cc1cc(NC(=O)CSc2nc3ccccc3c(=O)n2C2CCCC2)no1	-18%
Cn1c(Cn2c(=O)sc3ccccc32)nnc1SCC(=O)NCCc1ccccc1	29%
CCCCN(C)Cc1c(C)[nH]c2ccc(Cl)cc2c1=O	-24%
Cc1cc(NC(=O)c2cc(-c3cccs3)on2)nn1Cc1ccc(Cl)cc1	-24%
N#Cc1cccc(-c2ccc3ncnc(NC4CCNCC4)c3c2)c1	15%
C(#Cc1ccccc1)Cn1nnc2ccccc21	-6%
CC1CCN(C(=O)CSc2ccc3nnc(-c4ccc(F)cc4)n3n2)CC1	6%
COC(=O)c1ccccc1S(=O)(=O)NC(=O)c1ccccc1	-12%
COc1cccc(-c2cc(NCc3cccs3)ncn2)c1	-2%
Cc1noc(NS(=O)(=O)c2ccc(NC(=O)COc3ccc(Cl)cc3Cl)cc2)c1C	6.3µM*
CCSc1ccccc1C(=O)Nc1cccnc1	-12%
c1ccc(C(c2nnnn2Cc2ccco2)N2CCN(C3CCCC3)CC2)cc1 (stereo not drawn)	48%
C[C@@]12CC[C@H]3[C@@H](CCC4=CC(=O)CC[C@]43C)[C@H]1CCC2=O	17%
More compounds follow:
SMILES	AmpC nodet inh
CC(C)(C)NC[C@@H](O)COc1cccc2[nH]c(C#N)cc12	9%
O=C(NCC(F)(F)F)Nc1cccnc1	-10%
CCOc1ccc(N(CC(=O)N2CCc3ccccc32)S(=O)(=O)c2c(C)noc2C)cc1	3.2µM*[single pt active]
CCCC(=O)Nc1cc(OCC)c(NC(=O)NC2CCCCC2)cc1OCC	13%
CCc1cc(=O)oc2c(C)c(O)c(CN3CCCCC3)cc12	2%
COc1ccc2nc(SCC(=O)N(C)C3CCCCC3)c(C#N)cc2c1	40%
O=C1OC2(c3ccccc3)C3CCCC2C13	-12%
CC(=O)C1C2c3ccccc3OC1(C)N=c1s/c(=C/c3cn(C)nc3C)c(=O)n12 (stereo not drawn)	142%
CCOC(=O)N1CCN(C(=O)c2ccc(CN(c3ccccc3)S(C)(=O)=O)cc2)CC1	62%
Cc1cc(C(=O)CSc2nnnn2C)c(C)n1-c1ccc2c(c1)OCCO2	15%
C[C@@H](C(=O)O)c1ccc(C(=O)c2ccccc2)s1	-13%[12.8 µM]
CCOC(=O)N1CCN(c2c(-c3ccc(C)c(C)c3)c(=O)c2=O)CC1	14%
CCOC(=O)C(C#N)C(c1cccnc1)c1c(C)[nH][nH]c1=O (stereo not drawn)	-4%
O=C(NCCN=C1NS(=O)(=O)c2ccccc21)c1ccc2nccnc2c1	-5%
CCCC(c1nnnn1CCc1ccccc1)N1CCN(C(=O)c2ccco2)CC1 (stereo not drawn)	67%
CSc1nc2cc(S(=O)(=O)N3CCCCC3)ccc2s1	0%[5.75 µM]
CC1(C)CC(=O)C(CC2=C(O)CC(C)(C)CC2=O)=C(O)C1	-14%
COc1cccc(CNc2nc3nc(C)cc(C)n3n2)c1	26%
Cc1ccc(NCc2nnc(SCC(=O)N3CCCCC3)n2CC2CCCO2)c(C)c1 (stereo not drawn)	66%
Cc1nc2c(C(=O)NCc3ccc4c(c3)OCO4)c[nH]n2c(=O)c1Cl	-14%
COc1ccc(Cl)cc1NC(=O)CCn1cnc2ccccc2c1=O	18%
COc1ccc2cc(C(=O)NC3CCCCC3)c(=O)oc2c1	11%
O=C(NCc1ccc2c(c1)OCO2)c1c[nH]c2ccc(S(=O)(=O)N3CCOCC3)cc2c1=O	40%
Cc1nn(-c2ccccc2)c2[nH]c(=O)c(CNCc3ccc4c(c3)OCO4)cc12	-2%
CCc1nc(N)c(C#N)c(-c2ccncc2)c1C	-4%

Looked up by compound from the list above, 5 records:
SMILES	AmpC nodet inh
COc1ccc(Cl)cc1NC(=O)CCn1cnc2ccccc2c1=O	18%
O=C(NCCN=C1NS(=O)(=O)c2ccccc21)c1ccc2nccnc2c1	-5%
CCOC(=O)N1CCN(c2c(-c3ccc(C)c(C)c3)c(=O)c2=O)CC1	14%
CCCC(=O)Nc1cc(OCC)c(NC(=O)NC2CCCCC2)cc1OCC	13%
Cc1ccc(NCc2nnc(SCC(=O)N3CCCCC3)n2CC2CCCO2)c(C)c1 (stereo not drawn)	66%

The listing continues:
SMILES	AmpC nodet inh
Cc1cc(C)c(C#N)c(N2CCN(Cc3ccc4c(c3)OCO4)CC2)n1	74%
Cn1c(=O)c2[nH]c(-c3cccnc3)nc2n(C)c1=O	-11%
O=C(Oc1ccccc1)N1CCC2(CC1)CCN(C(c1ccccc1)c1ccccc1)CC2	4%
CCCC(=O)NCCc1cc2cc(C)c(C)cc2[nH]c1=O	11%
COc1cccc(-c2cncnc2Nc2ccc(F)cc2)c1	21%
CC(=O)Nc1ccc(C(=O)Nc2ccc(S(=O)(=O)N3CCCC3)cc2)cc1	-2%
COc1ccc(CC(NC(=O)c2ccccc2)C(=O)NCC(=O)O)cc1 (stereo not drawn)	10%
O=S(=O)(NC1CC1)c1ccc(S(=O)(=O)N2CCCC3(CCCCC3)C2)cc1	?
COCCn1c(-c2ccc(-c3ccccc3Cl)o2)nc2c1c(=O)[nH]c(=O)n2CC(C)C	71%
COCCn1nnnc1C(CC(C)C)N1CCN(c2cccc(OC)c2)CC1 (stereo not drawn)	71%
CCCCC(=O)Nc1ccc2oc(-c3ccncc3)nc2c1	17%
Cn1ncc2c(NCc3ccccc3)ncnc21	2%
Cc1c(S(=O)(=O)N2CCc3ccccc3C2)c(=O)n(C)c(=O)n1C	17%
O=C1Nc2ccccc2[C@]1(O)Cc1ccccn1	9%[5.75 µM]
O=c1[nH]c2cc3c(cc2cc1C(c1nnnn1C1CCCC1)N1CCCc2ccccc21)OCCO3 (stereo not drawn)	-3%
CC(C)(C)NS(=O)(=O)c1ccc(CCC(=O)N2CCOCC2)cc1	7%
CCOC(=O)CSC1=C(C#N)C(C)C2=C(CCCC2=O)N1 (stereo not drawn)	-1%
Cc1nn(C)c(C)c1S(=O)(=O)N1CCC(C(=O)NCCC2=CCCCC2)CC1	77%
COc1ccc(-c2nn(-c3ccccc3)cc2/C=N/n2cnnc2)cc1OC	120%
Cc1cc(O)c(-c2n[nH]c3c2C(c2cccc(O)c2)N(Cc2cccnc2)C3=O)cc1Cl (stereo not drawn)	9%
O=C(CCc1ccccc1)Nc1ccc(N2CCOCC2)cc1	3%
O=c1c2ccccc2n(Cc2ccc(F)cc2)c(=O)n1C1CCCC1	-12%
Clc1cccc(Cl)c1Cl	-5%
CCSc1ccc2c(c1)N(CCCN1CCN(C)CC1)c1ccccc1S2	57%[12.8 µM]
CCn1c(SCC(=O)OCC(=O)N2c3ccccc3NC(=O)C2(C)C)nnc1-c1ccco1	22%
(next part)
SMILES	AmpC nodet inh
CCOC(=O)Cc1c(C)nc2c(-c3cccc(Br)c3)c[nH]n2c1=O	-9%
CCOc1ccc2nc(C(C)O)[nH]c2c1 (stereo not drawn)	-6%
C=CCNC(=O)CN(c1ccc(F)cc1)S(=O)(=O)c1ccc(OC)cc1	12%
COC(=O)c1ccc(C(NC(=O)OCc2ccccc2)/C(=C/[C@@H](C)C(=O)NCc2cc(F)cc(F)c2)c2cccnc2)cc1 (stereo partly drawn)	72%
Cc1ccc(C2C(C(=O)c3sc(C)nc3C)=C(O)C(=O)N2CCCN(C)C)o1 (stereo not drawn)	-7%
c1ccc(C[N+]23CN4CN(CN(C4)C2)C3)cc1	4%[5.75 µM]
O=C(O)CCc1ccc(-c2cccs2)n1CCC(=O)O	-5%
